# A1 apoptosis 2 = compounds inhibiting A1, read as caspase activation | AID 2465 | caspase activation, % (concentration not given with the values) | MEF A1-2A-BIM cells, caspase-Glo luminescence, 3 h; percent of clofoctol response, DMSO zero | 24,000 tested, under 10 active; in the data active = caspase activation above about 5.9%;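 also: wells of about 30 µL received 50 nL stock; the first replicate is given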
#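 Material: A1-2A-BIM-expressing MEF cells. Buffer or medium: RPMI-1640 plus 10% FBS. Incubation: cells settled overnight, compound exposure 3 h at 37 °C, 5% CO2. Signal: Caspase-Glo 3/7 luminescence, 1 h at room temperature.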
# Active calls of the source: *. A portion of the library; rates above refer to the full screens.
SMILES	A1 apoptosis 2
CC(C)NC(=O)Nc1cccc2c1O[C@H](CN(C)S(=O)(=O)c1cn(C)cn1)[C@H](C)CN([C@H](C)CO)C2=O	1.4
CC(C)NC(=O)N(C)C[C@H]1Oc2ccc(NC(=O)Cc3cn(C)c4ccccc34)cc2C(=O)N([C@H](C)CO)C[C@@H]1C	-0.8
C[C@@H]1CN([C@H](C)CO)C(=O)Cc2cc(NS(=O)(=O)c3ccccc3)ccc2O[C@H]1CN(C)S(C)(=O)=O	0.4
C[C@@H]1CN([C@@H](C)CO)C(=O)c2cc(NC(=O)CCCN(C)C)ccc2O[C@H]1CN(C)Cc1ccc2c(c1)OCO2	1.2
Cc1ccc(S(=O)(=O)N(C)C[C@H]2OCCCC[C@H](C)Oc3ccc(NC(=O)C4CCCCC4)cc3C(=O)N([C@H](C)CO)C[C@@H]2C)cc1	0.9
Cc1noc(C)c1NC(=O)N(C)C[C@@H]1Oc2c(NS(=O)(=O)c3cccs3)cccc2C(=O)N([C@H](C)CO)C[C@H]1C	0.8
C[C@@H]1CCCCO[C@@H](CN(C)CC2CC2)[C@@H](C)CN([C@H](C)CO)C(=O)c2cc(NC(=O)CCCN(C)C)ccc2O1	0.3
C[C@@H]1CN([C@H](C)CO)C(=O)Cc2cc(NC(=O)Cc3cn(C)c4ccccc34)ccc2O[C@H]1CN(C)C(=O)Nc1ccc(F)cc1	0.8
C[C@H]1CN([C@@H](C)CO)C(=O)c2cccc(NS(=O)(=O)c3ccccc3)c2O[C@@H]1CN(C)Cc1ccc(C(=O)Nc2ccccc2N)cc1	-0.2
C[C@H](CO)N1C[C@H](C)[C@H](CN(C)Cc2ccccc2)Oc2ncc(-c3cccc(F)c3)cc2C1=O	1.0
Cc1cc(C(=O)Nc2cccc3c2O[C@@H](CN(C)C(=O)Nc2ccccc2)[C@@H](C)CN([C@H](C)CO)C3=O)n(C)n1	-1.3
CC(C)NC(=O)N(C)C[C@@H]1OCCCC[C@H](C)Oc2ccc(NC(=O)Nc3ccc4c(c3)OCO4)cc2C(=O)N([C@@H](C)CO)C[C@H]1C	-0.7
COc1ccc(NC(=O)N(C)C[C@H]2Oc3c(NS(=O)(=O)c4cccs4)cccc3C(=O)N([C@H](C)CO)C[C@H]2C)cc1	0.3
COc1ccc(S(=O)(=O)N(C)C[C@@H]2OCCCC[C@@H](C)Oc3ccc(NC(=O)Nc4cccc5ccccc45)cc3C(=O)N([C@H](C)CO)C[C@H]2C)cc1	0.5
C[C@@H]1CN([C@H](C)CO)C(=O)c2cccc(NC(=O)Nc3cccc4ccccc34)c2O[C@@H]1CN(C)C(=O)Nc1ccc(C(F)(F)F)cc1	-0.4
C[C@@H]1CN([C@@H](C)CO)C(=O)c2cccc(NC(=O)C3CCCCC3)c2O[C@@H]1CN(C)Cc1ccc2c(c1)OCO2	-0.7
C[C@@H]1CN([C@H](C)CO)C(=O)c2cccc(NS(=O)(=O)c3cn(C)cn3)c2O[C@H]1CN(C)Cc1ccc2c(c1)OCO2	1.1
C[C@H]1CN([C@@H](C)CO)C(=O)c2cc(NS(=O)(=O)c3cccs3)ccc2O[C@H]1CN(C)Cc1ccc(Cl)c(Cl)c1	-2.3
C[C@@H]1CN([C@@H](C)CO)C(=O)c2cccc(NS(=O)(=O)c3ccc(Cl)cc3)c2O[C@@H]1CN(C)S(=O)(=O)c1cccs1	-0.2
C[C@H]1CN([C@@H](C)CO)C(=O)c2cc(NC(=O)Nc3ccc(F)cc3)ccc2O[C@H]1CN(C)Cc1ccc(C(=O)O)cc1	-0.1
Cc1ncc(CO)c(/C=N/NC(=O)CCCCCCC(=O)NO)c1O	0.2
C[C@@H]1CN([C@@H](C)CO)C(=O)c2cccc(NC(=O)Nc3ccc4c(c3)OCO4)c2O[C@H]1CN(C)CC1CCCCC1	-1.8
C[C@@H]1CN([C@H](C)CO)C(=O)Cc2cc(NS(=O)(=O)c3ccc(Cl)cc3)ccc2O[C@H]1CN(C)Cc1ccc2c(c1)OCO2	0.9
C[C@H](CO)N1C[C@H](C)[C@H](CN(C)Cc2ccc(C(=O)O)cc2)OCCCC[C@H](C)Oc2ccc(NC(=O)CCCN(C)C)cc2C1=O	0.9
C[C@@H]1CCCCO[C@@H](CN(C)S(=O)(=O)c2ccccc2)[C@H](C)CN([C@H](C)CO)C(=O)c2cc(NC(=O)Cc3ccccc3)ccc2O1	-0.6
C[C@H](CO)N1C[C@H](C)[C@H](CN(C)S(C)(=O)=O)Oc2c(NC(=O)Nc3ccc4c(c3)OCO4)cccc2C1=O	0.5
COc1ccc(-c2cnc3c(c2)C(=O)N([C@H](C)CO)C[C@H](C)[C@H](CN(C)Cc2ccncc2)O3)cc1	0.6
CC(C)NC(=O)Nc1ccc2c(c1)C(=O)N([C@@H](C)CO)C[C@H](C)[C@@H](CN(C)Cc1ccc(C(=O)O)cc1)OCCCC[C@H](C)O2	0.2
C[C@@H]1CN([C@H](C)CO)C(=O)c2cc(NC(=O)CCCN(C)C)ccc2O[C@@H](C)CCCCO[C@H]1CN(C)S(=O)(=O)c1ccc(Cl)cc1	-0.3
C[C@H](CO)N1C[C@H](C)[C@H](CN(C)S(=O)(=O)c2cccs2)Oc2ccc(NC(=O)Cn3cnnn3)cc2C1=O	-0.9
C[C@H]1CCCCO[C@@H](CN(C)Cc2ccc(C(=O)O)cc2)[C@@H](C)CN([C@@H](C)CO)C(=O)c2cc(NC(=O)c3ccncc3)ccc2O1	-0.5
C[C@H](CO)N1C[C@H](C)[C@@H](CN(C)Cc2ccc(C(=O)O)cc2)Oc2ccc(NS(=O)(=O)c3ccc(F)cc3)cc2CC1=O	-0.6
COc1ccc(NC(=O)N(C)C[C@H]2OCCCC[C@H](C)Oc3ccc(NC(=O)CCC(F)(F)F)cc3C(=O)N([C@@H](C)CO)C[C@@H]2C)cc1	0.3
C[C@H](CO)N1C[C@H](C)[C@H](CN(C)C(=O)NC2CCCC2)OCc2cn(nn2)CCCC1=O	-1.1
C[C@H](CO)N1C[C@H](C)[C@H](CN(C)C(=O)c2ccccc2)OCCCC[C@H](C)Oc2ccc(NS(C)(=O)=O)cc2C1=O	-0.1
C[C@@H]1CN([C@H](C)CO)C(=O)c2cccc(NC(=O)c3cnccn3)c2O[C@H]1CN(C)C(=O)Nc1ccc(F)cc1	-0.8
C[C@@H]1CN([C@H](C)CO)C(=O)c2cc(NS(=O)(=O)c3ccc(F)cc3)ccc2O[C@H]1CN(C)Cc1ccc(Oc2ccccc2)cc1	0.1
COc1ccc(S(=O)(=O)N(C)C[C@@H]2Oc3c(NC(=O)NC(C)C)cccc3C(=O)N([C@@H](C)CO)C[C@H]2C)cc1	-1.2
Cc1noc(C)c1S(=O)(=O)Nc1ccc2c(c1)C(=O)N([C@@H](C)CO)C[C@@H](C)[C@H](CN(C)C(=O)Nc1ccc(C(F)(F)F)cc1)OCCCC[C@@H](C)O2	-0.8
O=C(CCCCC(=O)N/N=C/c1ccc(O)cc1Br)NO	-0.6
C[C@@H]1CN([C@@H](C)CO)C(=O)c2cccc(NC(=O)Nc3ccccc3)c2O[C@H]1CN(C)C(=O)Nc1ccc(C(F)(F)F)cc1	0.2
Cc1ccc(S[C@]2(C(=O)NC(C)C)CC(=O)N(C3CCCCC3)[C@@H]2c2ccc(CO)cc2I)cc1	1.0
C[C@@H]1CN([C@@H](C)CO)C(=O)c2cc(NC(=O)Nc3ccc(F)cc3)ccc2O[C@@H]1CN(C)S(=O)(=O)c1ccc(F)cc1	-1.2
C[C@@H]1CN([C@H](C)CO)C(=O)c2cc(NS(=O)(=O)c3ccc(Cl)cc3)ccc2O[C@@H]1CN(C)C(=O)NC1CCCCC1	1.5
C[C@H](CO)N1C[C@H](C)[C@@H](CN(C)Cc2ccc(Cl)c(Cl)c2)Oc2ccc(NC(=O)c3ccncc3)cc2C1=O	-0.5
C[C@@H]1CCCCO[C@H](CN(C)S(=O)(=O)c2cn(C)cn2)[C@@H](C)CN([C@@H](C)CO)C(=O)c2cc(NC(=O)CCCN(C)C)ccc2O1	-0.1
Cc1noc(C)c1S(=O)(=O)Nc1ccc2c(c1)C(=O)N([C@H](C)CO)C[C@@H](C)[C@H](CN(C)Cc1ccc(C(F)(F)F)cc1)OCCCC[C@H](C)O2	0.9
Cc1cc(C(=O)Nc2cccc3c2O[C@H](CN(C)C(=O)NC(C)C)[C@@H](C)CN([C@H](C)CO)C3=O)n(C)n1	-0.2
COc1ccc(S(=O)(=O)N(C)C[C@H]2Oc3c(NC(=O)c4ccc(-c5nccs5)cc4)cccc3C(=O)N([C@H](C)CO)C[C@@H]2C)cc1	-0.6
C[C@@H]1CN([C@H](C)CO)C(=O)Cc2cc(N(C)C)ccc2O[C@H]1CN(C)S(=O)(=O)c1ccc(Cl)cc1	1.1
C[C@H]1CN([C@@H](C)CO)C(=O)CCCn2nncc2CO[C@@H]1CN(C)C(=O)Nc1ccc(-c2cccs2)cc1	0.4
Cc1noc(C)c1NC(=O)N(C)C[C@@H]1Oc2ccc(NS(=O)(=O)c3cn(C)cn3)cc2CC(=O)N([C@@H](C)CO)C[C@H]1C	0.8
C[C@@H]1CN([C@H](C)CO)C(=O)Cc2cc(NC(=O)C3CCCCC3)ccc2O[C@@H]1CN(C)S(=O)(=O)c1cn(C)cn1	1.2
Cc1ccc(S(=O)(=O)N(C)C[C@H]2Oc3ccc(NS(=O)(=O)c4ccccc4)cc3C(=O)N([C@H](C)CO)C[C@@H]2C)cc1	1.6
Cc1ccc(F)cc1S(=O)(=O)N[C@@H]1CCN(Cc2ccc3c(c2)OCO3)C1	-0.5
C[C@@H]1CN([C@@H](C)CO)C(=O)c2cccc(NC(=O)C3CCOCC3)c2O[C@H]1CN(C)S(=O)(=O)c1cn(C)cn1	-0.7
C[C@@H]1CCCCO[C@H](CN(C)S(=O)(=O)c2ccccc2)[C@@H](C)CN([C@@H](C)CO)C(=O)c2cc(NC(=O)NC3CCCCC3)ccc2O1	-0.3
Cc1noc(C)c1NC(=O)Nc1cccc2c1O[C@@H](CN(C)Cc1ccc(C(=O)O)cc1)[C@H](C)CN([C@@H](C)CO)C2=O	0.1
Cc1noc(C)c1NC(=O)Nc1ccc2c(c1)CC(=O)N([C@H](C)CO)C[C@@H](C)[C@@H](CN(C)Cc1ccc(C(F)(F)F)cc1)O2	0.1
C[C@@H]1CCCCO[C@H](CN(C)S(=O)(=O)c2ccccc2)[C@H](C)CN([C@@H](C)CO)C(=O)c2cc(NC(=O)CCCN(C)C)ccc2O1	0.4

# Part of the list above, reformatted.
COc1ccc(S(=O)(=O)N(C)C[C@H]2Oc3c(NC(=O)c4ccc(-c5nccs5)cc4)cccc3C(=O)N([C@H](C)CO)C[C@@H]2C)cc1
  A1 apoptosis 2: -0.6

C[C@@H]1CN([C@H](C)CO)C(=O)Cc2cc(N(C)C)ccc2O[C@H]1CN(C)S(=O)(=O)c1ccc(Cl)cc1
  A1 apoptosis 2: 1.1

# The results go on:
SMILES	A1 apoptosis 2
C[C@H](CO)N1C[C@H](C)[C@@H](CN(C)S(=O)(=O)c2cccs2)Oc2ccc(NS(=O)(=O)c3ccc(Cl)cc3)cc2CC1=O	-0.1
CC(C)NC(=O)N(C)C[C@H]1OCCCC[C@@H](C)Oc2ccc(NS(=O)(=O)c3cccs3)cc2C(=O)N([C@@H](C)CO)C[C@H]1C	1.0
C[C@@H]1CN([C@H](C)CO)C(=O)c2cc(NC(=O)c3ccncc3)ccc2O[C@@H]1CN(C)Cc1ccc(-c2ccccc2)cc1	0.7
C[C@@H]1CCCCO[C@H](CN(C)S(=O)(=O)c2ccc(F)cc2)[C@@H](C)CN([C@@H](C)CO)C(=O)c2cc(NC(=O)c3ccccc3)ccc2O1	-0.1
Cc1noc(C)c1S(=O)(=O)N(C)C[C@H]1OCCCC[C@H](C)Oc2ccc(NS(C)(=O)=O)cc2C(=O)N([C@H](C)CO)C[C@H]1C	-0.2
C[C@@H]1CN([C@H](C)CO)C(=O)c2cc(NC(=O)c3ccncc3)ccc2O[C@@H](C)CCCCO[C@@H]1CN(C)C(=O)C1CCCCC1	0.4
Cc1noc(C)c1NC(=O)Nc1cccc2c1O[C@@H](CN(C)Cc1ccc(Cl)c(Cl)c1)[C@@H](C)CN([C@@H](C)CO)C2=O	-0.2
Cc1noc(C)c1S(=O)(=O)Nc1ccc2c(c1)C(=O)N([C@@H](C)CO)C[C@@H](C)[C@H](CN(C)Cc1ccc(C(=O)O)cc1)OCCCC[C@@H](C)O2	-0.1
Cc1noc(C)c1NC(=O)Nc1cccc2c1O[C@H](CN(C)S(=O)(=O)c1cccs1)[C@@H](C)CN([C@@H](C)CO)C2=O	0.0
C[C@H]1CCCCO[C@H](CN(C)S(=O)(=O)c2ccc(Cl)cc2)[C@@H](C)CN([C@@H](C)CO)C(=O)c2cc(NS(C)(=O)=O)ccc2O1	0.2

# Among those listed so far, 7 contain a COOH group:
SMILES	A1 apoptosis 2
C[C@H]1CN([C@@H](C)CO)C(=O)c2cc(NC(=O)Nc3ccc(F)cc3)ccc2O[C@H]1CN(C)Cc1ccc(C(=O)O)cc1	-0.1
C[C@H](CO)N1C[C@H](C)[C@H](CN(C)Cc2ccc(C(=O)O)cc2)OCCCC[C@H](C)Oc2ccc(NC(=O)CCCN(C)C)cc2C1=O	0.9
CC(C)NC(=O)Nc1ccc2c(c1)C(=O)N([C@@H](C)CO)C[C@H](C)[C@@H](CN(C)Cc1ccc(C(=O)O)cc1)OCCCC[C@H](C)O2	0.2
C[C@H]1CCCCO[C@@H](CN(C)Cc2ccc(C(=O)O)cc2)[C@@H](C)CN([C@@H](C)CO)C(=O)c2cc(NC(=O)c3ccncc3)ccc2O1	-0.5
C[C@H](CO)N1C[C@H](C)[C@@H](CN(C)Cc2ccc(C(=O)O)cc2)Oc2ccc(NS(=O)(=O)c3ccc(F)cc3)cc2CC1=O	-0.6
Cc1noc(C)c1NC(=O)Nc1cccc2c1O[C@@H](CN(C)Cc1ccc(C(=O)O)cc1)[C@H](C)CN([C@@H](C)CO)C2=O	0.1
Cc1noc(C)c1S(=O)(=O)Nc1ccc2c(c1)C(=O)N([C@@H](C)CO)C[C@@H](C)[C@H](CN(C)Cc1ccc(C(=O)O)cc1)OCCCC[C@@H](C)O2	-0.1

# Screens (PubChem)
